StopGo RLuc – lowers the Renilla signal of an FMDV 2A StopGo reporter; Potency, µM (series often up to 57.5 µM), without a hit: at the highest dose signal change, negative = less light; 120,000 compounds, 0.32% hits; HEK cells with a luciferase reporter of 2A StopGo recoding; AID 1745857; active means well fitted falling curve with a large enough effect; inconclusive means small, poorly fitted or top-dose-only effect; inactive means no such curve, though single readings can be large or run the other way; further: nearly all actives have a fitted effect of over 55% in size; overnight with compound
StopGo FLuc – lowers the firefly signal of an FMDV 2A StopGo reporter; 120,000 compounds, 0.23% hits; HEK cells with a luciferase reporter of 2A StopGo recoding; Potency, µM (doses to about 57.5 µM), for inactives: at the top dose signal change, negative = less light; active = well fitted falling curve with a large enough effect; inconclusive = small, poorly fitted or top-dose-only effect; inactive = no such curve, though single readings can be large or run the other way; further: nearly all actives have a fitted effect of over 60% in size; overnight with compound
* = called active by the depositor; ? = inconclusive; [ ] = another dose, or the depositor's remark. On the % scale 0 is the no-effect control and ±100 the full control effect; potency means the concentration at half of the fitted maximal effect. The list is partial; the hit share may differ from the screen's.

molecule | StopGo RLuc | StopGo FLuc
FC(F)(F)c1nnc2ccc(Sc3nnc(Cc4ccccc4)n3-c3ccccc3)nn12 | ? | ?
CCOc1ccc(C2CC(=O)Nc3c(-c4ccc(C)cc4)csc32)cc1OCC (stereo not given) | 2% | 8%
CCCn1c(=O)[nH]c(=O)c2c1nc(CCc1ccccc1)c(=O)n2CCOC | 1% | -1%
CC(=O)N1CCN(C(=O)CCc2ncc(-c3ccccc3)o2)CC1 | -15% | 20%
COc1ccc(OC)c(S(=O)(=O)N2Cc3ccccc3CC2C(=O)Nc2ccc(C)cc2C)c1 (stereo not given) | 234%[activator] | 23%
C/C(=N\O)C1(C)CC2=C(CCCC2(C)C)CC1C (stereo not given) | -9% | -11%
O=C(NNC(=O)C1CCCC1)c1cccc2ncccc12 | -12% | 9%
COCCNC(=O)CCCn1c(SCc2ccccc2C)nc2c(sc3ccccc32)c1=O | -17% | -21%

Continuation:
molecule | StopGo RLuc | StopGo FLuc
CC1Cc2ccccc2N1C(=O)COC(=O)c1ccc(Cl)c([N+](=O)[O-])c1 (stereo not given) | -4% | -1%
O=C(NC12CC3CC(CC(C3)C1)C2)C1CCN(S(=O)(=O)Cc2ccccc2)CC1 | 3% | -3%
Cc1cccc(CCNC(=O)c2ccc3c(Cl)c4c(nc3c2)CCCC4)c1 | ? | 0%
Cc1ccc(Cl)cc1N1CCN(CCCNC(=O)c2nnc(Cc3cccc(Cl)c3)o2)CC1 | -1% | ?
COc1ccc(C(=O)NCc2nc(-c3cccs3)no2)cc1 | 15% | 23%
CN(CC(=O)N1CCN(CC(=O)NC(C)(C)C)CC1)c1nc(-c2ccccc2)c2ccccc2n1 | -5% | -1%
CCCOC(=O)c1c[nH]c2ccccc12 | 17% | 66%[activator]
COc1ccc(S(=O)(=O)NCC(c2ccc(N(C)C)cc2)N2CCCC2)cc1F (stereo not given) | -18% | -15%

The results go on.
molecule | StopGo RLuc | StopGo FLuc
CN(CC(=O)Nc1ccccc1Br)Cc1ccccc1N1CCCCC1 | 5% | 5%
COc1ccc(Cl)cc1Nc1nc(N)c(C(=O)c2cc(C)ccc2C)s1 | -14% | 4%
CCCCOc1ccc(-c2nonc2NC(=O)c2ccco2)cc1 | 8% | 3%
O=S(=O)(Nc1nc2ccccc2nc1Nc1ccc2c(c1)OCO2)c1cccc(Cl)c1 | 95%[activator] | 14%
Oc1c(C(c2ccccc2F)N2CCCCC2)sc2nc(-c3ccco3)nn12 (stereo not given) | 62%[activator] | 0%
CCOc1ccc(Nc2oc(/C=C/c3cc(OC)c(OC)c(OC)c3)nc2C#N)cc1 | 46%[activator] | 29%
CCCCCCCC1(C)NC(=O)N(Cc2coc(-c3ccccc3)n2)C1=O (stereo not given) | -25% | ?
Cc1[nH]c2ccccc2c1C1c2ccccc2C(=O)N1CC(N)=O (stereo not given) | 24% | 25%

(next part)
molecule | StopGo RLuc | StopGo FLuc
Cc1cc(C)n(CCc2nc3cc(NC(=O)COc4ccccc4)ccc3n2C)n1 | 4% | 71%[activator]
O=C(CCS(=O)(=O)c1cccc2nonc12)Nc1cccc(F)c1 | 12% | 5%
N#C/C(=C/c1ccc2c(c1)OCO2)c1nc2ccccc2[nH]1 | 179%[activator] | 178%[activator]
CC(C)c1ccc(C2C(C#N)=C(N)Oc3c2ccc2ccccc32)cc1 (stereo not given) | 27% | 21%
CCC(CC)=C(C#N)C(=O)NC1CCCC1 | 1% | -7%
COc1cc(CN(CCN(C)C)Cc2ccccc2)cc(OC)c1OC | -4% | -8%
COc1ccccc1Oc1c(C)oc2cc(OC(=O)C3CC3)ccc2c1=O | 25% | 17%
COc1ccc(NC(=O)Cc2c(C)c3c(OC)cc(C)cc3oc2=O)cc1 | -9% | -7%

(list continues)
molecule | StopGo RLuc | StopGo FLuc
N#CC1(NC(=O)CSc2cccc3cccnc23)CCCCCC1 | 68%[activator] | 1%
Fc1ccc(-c2cn3cc(Cc4ccccc4)sc3n2)cc1 | -8% | 61%[activator]
COc1ccc(C(C)=O)cc1CN1CCCC1 | -10% | 0%
COc1ccc(-c2c(C)oc3cc(OC(C)=O)ccc3c2=O)cc1 | 4% | 0%
CC(=O)Oc1ccccc1C(=O)O | -1% | 7%[11.5 µM]
COc1cccc2c1cc1c(=O)n(CC(=O)N3CCN(c4ccc(Cl)cc4)CC3)nc(C)n12 | -12% | -11%
Cc1cc(C(=O)Nc2ccccc2SC2CCCC2)c(C)o1 | -11% | -7%
COc1ccc(Br)cc1/C=C(/C#N)C(=O)C(C)(C)C | 8% | 14%

Other structures:
molecule | StopGo RLuc | StopGo FLuc
CCCn1c(-c2ccc(S(=O)(=O)N3CCOCC3)cc2)csc1=Nc1ccc(OCC)cc1 | -4% | 5%
Cc1ccc2nc(NC(=O)CSc3nccn3Cc3ccc(F)cc3)sc2c1 | ? | -14%
Cc1ccc(C(=O)NCCn2c(C)cc3ccccc32)cc1 | 16% | -10%
COc1cccc(CNC(=O)c2ccc(-c3nc(COc4ccccc4)c(C)o3)cc2)c1 | ? | ?
CC(NC(=O)c1nccnc1N)c1ccc(F)cc1 (stereo not given) | 4% | 20%
Cc1cccc(C)c1NC(=O)COc1ncnc2ccccc12 | -4% | -3%
COC(=O)c1ccc(C2SCC(=O)Nc3n[nH]c(C)c32)cc1 (stereo not given) | -2% | -7%
Cn1cc(C2N=C(N)Nc3nc4ccccc4n32)c2cc(F)ccc21 (stereo not given) | -23% | -5%

Other records follow.
molecule | StopGo RLuc | StopGo FLuc
O=S(=O)(c1cccc(Cl)c1)c1nnn2c1nc(NC1CCCC1)c1sccc12 | 24% | 1%
Cc1ccsc1C(=O)NC(C)c1ccc(F)c(F)c1 (stereo not given) | 13% | 20%
CNC(=O)C(C)Sc1n[nH]c(-c2ccc(OC)cc2OC)n1 (stereo not given) | 24% | 38%[activator]
CCC(C)NC(=O)/C(=C/c1ccccc1Cl)c1ccccc1 (stereo not given) | 50%[activator] | 2%
COc1cccc(Cn2c(SCc3ccc(C(=O)N4CCC(C)CC4)cc3)nc3ccncc32)c1 | -23% | -23%
CC(C)COc1ccc(C(=O)N2CCC(c3nc4ccccc4o3)CC2)cc1 | 9% | 17%
Cc1cccc(-n2c(C)nc3cc(C(=O)NCc4ccc(F)cc4)ccc32)c1 | 56%[activator] | 5%
CCC(C)NC(=O)c1ccc(Oc2nccnc2Sc2ccccc2)cc1 (stereo not given) | 18% | 51%[activator]

Next part:
molecule | StopGo RLuc | StopGo FLuc
CCOC(=O)CCn1nc(-c2ccc(C)cc2)c2ccccc2c1=O | -4% | 11%
Cc1cc(N2CCN(C)CC2)nc2ccc(NC(=O)Nc3ccccc3Cl)cc12 | 1% | 159%[activator]
COc1ccc(OCc2ccc(-c3nc(C#N)c(N4CCN(C)CC4)o3)o2)cc1 | -7% | 7%
CCCCCN1C(C(=O)c2ccccc2)=C(NC(=O)c2ccc(C)cc2)c2ccccc2S1(=O)=O | -12% | -3%
COc1ccccc1OCC(=O)N(Cc1ccc(-c2ccc(Cl)cc2)o1)C1CCS(=O)(=O)C1 (stereo not given) | 1% | -9%
O=C1CSc2ccc(C(=O)NN(c3ccccc3)c3ccccc3)cc2N1 | -3% | -12%
O=[N+]([O-])c1ccc2nc(Cl)ccc2c1 | -3% | 6%
Cc1ccc(CN2c3ccccc3S(=O)(=O)c3ccccc32)cc1 | 8% | -17%

(list continues)
molecule | StopGo RLuc | StopGo FLuc
O=c1cc(-c2ccccc2)nc(SCc2nc(-c3cccc(C(F)(F)F)c3)no2)[nH]1 | -13% | -18%
CC(C(N)=O)N(C)Cc1ccc(C(=O)NCC(F)(F)F)cc1 (stereo not given) | 6% | 20%
Cc1ccc(CC(=O)Nc2c(C(=O)N3CCN(c4ccccc4)CC3)oc3ccccc23)cc1 | 241%[activator] | 25%
O=C(Nc1ccc(-n2cccn2)c(F)c1)C1CCCN(C(=O)c2cccs2)C1 (stereo not given) | ? | -20%
Cc1ccccc1NC(=O)CN(Cc1ccc2c(c1)OCO2)C1CCCC1 | 45%[activator] | -2%
Cc1nc2cc(NC(=O)COc3ccccc3F)ccc2o1 | 19% | 233%[activator]
O=Cc1ccccc1OCc1ccccc1 | 12% | 75%[activator]
CN(C)S(=O)(=O)c1ccc(=O)n(Cc2ncc(-c3ccc(Cl)cc3)o2)c1 | -4% | 12%

Continued:
molecule | StopGo RLuc | StopGo FLuc
Cc1cc(C(=O)N2CCNCC2)c2ccccc2n1 | -6% | 6%
CC(NC(=O)C1CCCC1)c1ccc(Cl)s1 (stereo not given) | 2% | -11%
Cc1ccc(S(=O)(=O)c2cn(Cc3cccc(F)c3)c3cc(N4CCCC4)c(F)cc3c2=O)cc1 | 9% | 2%
Cc1ccc(C)c(-c2csc(-c3cc4ccc(O)cc4oc3=O)n2)c1 | -17% | -13%
Cc1cc(OCC(=O)NCCCO)c2c(C)c(C)c(=O)oc2c1 | 21% | 21%
CCCOc1ccc(/C=C/C(=O)Nc2sc3c(c2C(=O)OCC)CCC(C)C3)cc1OC (stereo not given) | -3% | -15%
Cc1ccc(NC(=O)Cc2nnc(SCC(=O)c3ccc(C#N)cc3)n2C)cc1C | -13% | -8%
O=S(=O)(NCCc1csc2nc(-c3ccc(F)cc3)nn12)c1ccc2c(c1)OCCO2 | 30%[activator] | ?

The list goes on:
molecule | StopGo RLuc | StopGo FLuc
COC(=O)c1ccc2c(c1)N(CC(=O)Nc1cccc(C(F)(F)F)c1)C(=O)c1ccccc1S2 | 3% | 4%
Cc1ccc(Cc2nn3c(SCC(=O)Nc4ccccc4C(F)(F)F)nnc3[nH]c2=O)cc1 | -29% | -3%
COc1ccc(CCNS(=O)(=O)c2c(C)nc3sc(C)cn3c2=O)cc1OC | -16% | 0%
O=S(=O)(Cc1ccccc1)Cc1cc(Cl)c2c(c1)OCO2 | 8% | 0%
COc1ccc(Cl)cc1-n1c(CCC(=O)O)ccc1-c1ccc(C)cc1 | 44%[activator] | -5%
CC1=C(C(=O)Nc2ccc(C)cc2)C(c2ccccc2Cl)n2nnnc2N1 (stereo not given) | 17% | 2%
CC(=O)c1ccc(NC(=O)c2ccccc2-c2ccccc2)cc1 | 6% | 5%
O=C(CSc1nc2cc(C(F)(F)F)ccc2n1Cc1ccccc1)c1ccc(Br)s1 | 21% | 9%

The listing continues:
molecule | StopGo RLuc | StopGo FLuc
CCCS(=O)(=O)NCc1cccc(COC(C)(C)C)c1 | 7% | 19%
CCCC(=O)C1=C(NC(C)C(=O)O)CCCC1=O (stereo not given) | -7% | -1%
CCOC(=O)c1ccc(N2C(=O)c3n[nH]c(C)c3C2c2ccc(C(=O)OC)cc2)cc1 (stereo not given) | 4% | -7%
CCN(CC)C(=O)Oc1ccc2c(=O)c(-c3ccccc3)coc2c1 | -5% | 0%
N#Cc1ccc(/C=C2/CCOc3ccc(Br)cc3C2=O)cc1 | 0% | -5%
COc1ccc2c(c1)c(C(C(=O)O)N1CCN(C(C)=O)CC1)cn2CC(=O)O (stereo not given) | -14% | -11%
COc1ccc(NC(=O)NCc2cccn2Cc2cccc(F)c2)cc1OC | 78%[activator] | 0%
Cc1cc(C)c(/C=C/c2onc(C)c2S(=O)(=O)N2CCC(C(=O)NCC(C)c3ccccc3)CC2)c(C)c1 (stereo not given) | -10% | -3%

Additional results
molecule | StopGo RLuc | StopGo FLuc
CCCCN1C(=O)C2(CC(=O)Nc3[nH]ncc32)c2ccccc21 (stereo not given) | -4% | -1%
Cc1cc(O)c2c(C)c(CC(=O)N3CCN(Cc4ccccc4)CC3)c(=O)oc2c1 | -3% | -9%
CCN(CC)C(=O)c1ccc2c(c1)N(Cc1ccc(C(F)(F)F)cc1)C(=O)c1ccccc1S2 | -7% | -16%
O=C(O)CCCC(=O)N1N=C(c2ccccc2)CC1c1ccc2c(c1)OCO2 (stereo not given) | -3% | 13%
Cc1cccc(-c2ccccc2C(=O)O)c1 | -4% | 1%
CCOc1ccc(/C=C(\C#N)c2nc3ccccc3[nH]2)c(OCC)c1 | -17% | 178%[activator]
COc1ccc2c(c1)c(=O)c(S(=O)(=O)c1ccc(C)c(C)c1)cn2CC(=O)Nc1ccccc1 | 116%[activator] | 1%
O=C(COc1ccc(Cl)cc1)Nc1ccc(-c2nc3cc(Cl)ccc3o2)c(O)c1 | -19% | 99%[activator]

Continued.
molecule | StopGo RLuc | StopGo FLuc
CCCc1nc(SC)ncc1C(=O)Nc1cccc(F)c1 | 8% | 14%
Cc1c(C(=O)N2CCCCCC2)sc2nc(-c3ccc(F)cc3)cn12 | 22% | 84%[activator]
CCN1CCN(c2c(S(=O)(=O)c3ccc(C)c(C)c3)cnc3cc(OC)c(OC)cc23)CC1 | 10% | -6%
Cc1cc(=O)oc2cc(OCC(=O)NCc3ccccn3)ccc12 | -2% | 4%
Cc1ccc(C)c(-c2cc3ccccc3[nH]2)c1 | 22% | 32%[activator]

Ordered by formula weight (descending): seven of the compounds above.
molecule | StopGo RLuc | StopGo FLuc
CCN(CC)C(=O)c1ccc2c(c1)N(Cc1ccc(C(F)(F)F)cc1)C(=O)c1ccccc1S2 | -7% | -16%
CCCOc1ccc(/C=C/C(=O)Nc2sc3c(c2C(=O)OCC)CCC(C)C3)cc1OC (stereo not given) | -3% | -15%
COc1ccc(CCNS(=O)(=O)c2c(C)nc3sc(C)cn3c2=O)cc1OC | -16% | 0%
CCN(CC)C(=O)Oc1ccc2c(=O)c(-c3ccccc3)coc2c1 | -5% | 0%
Cc1cccc(C)c1NC(=O)COc1ncnc2ccccc12 | -4% | -3%
CCCC(=O)C1=C(NC(C)C(=O)O)CCCC1=O (stereo not given) | -7% | -1%
COc1ccc(C(C)=O)cc1CN1CCCC1 | -10% | 0%
